# High-throughput results from PubChem.
# Rango complex inh = prevents formation of the Rango-importin beta complex | Potency, µM (highest dose often 92.2 µM), inactives show at the top dose inhibition of complex formation | Q14974 | 0.031% of 340,000 active | Rango CFP/YFP FRET sensor + importin beta, 45 min | AID 540263; active = rising FRET ratio curve, often small or poorly fitted; inconclusive = mostly compound fluorescence or quenching in the first reads; inactive = flat curves in all reads;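 also: potency is read from the fitted curve at half-maximal effect; 0% = DMSO wells and 100% = buffer wells lacking importin beta; nearly all actives have a fitted effect of over 15% in size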
#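 Inhibition scored from the CFP 486 nm/YFP 530 nm FRET ratio 45 min after adding 0.125 microM importin beta to 50 nM Rango biosensor preincubated 5 min with compound (room temperature, PBS with DTT, Tween-20, BSA). No-importin wells as positive control.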
# miR-21 FLuc = raises the signal of a miR-21 reporter; HeLa miR-21 FLuc reporter, luciferase, 48 h; Potency, µM (top dose mostly 38.3 µM), for the others: top-dose reporter change, positive = more light; 340,000 tested, under 10 active; active = well fitted rising curve with a large enough effect; inconclusive = small, poorly fitted or top-dose-only effect; inactive = no such curve, though single readings can be large or run the other way;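 also: % of control where 0% means no effect; miR-21 action dims this reporter so a rising signal means less miR-21 action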
#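 Luminescence from a firefly luciferase reporter carrying a miR-21 binding site downstream, stably expressed under a CMV promoter in HeLa cells that make miR-21 endogenously, reports miRNA modulation after 48 h compound exposure up to approximately 40uM final.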
# GLA inh pH 4.5 = inhibitors of human alpha-galactosidase A at pH 4.5. P06280. purified enzyme, 4-MU-alpha-Gal fluorescence, pH 4.5. activity change, negative = inhibition, % at 105 µM. 230,000 tested, under 10 active. AID 1467; inconclusive = small, poorly fitted or top-dose-only inhibition, or a rising curve; inactive = flat fitted curve, though single readings scatter; no compound was filed as active;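 also: 0% = full activity with enzyme and -100% = basal without enzyme; dose as in the result columns while the protocol names 77 µM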
# Target sequence (P06280 whole entry, looked up): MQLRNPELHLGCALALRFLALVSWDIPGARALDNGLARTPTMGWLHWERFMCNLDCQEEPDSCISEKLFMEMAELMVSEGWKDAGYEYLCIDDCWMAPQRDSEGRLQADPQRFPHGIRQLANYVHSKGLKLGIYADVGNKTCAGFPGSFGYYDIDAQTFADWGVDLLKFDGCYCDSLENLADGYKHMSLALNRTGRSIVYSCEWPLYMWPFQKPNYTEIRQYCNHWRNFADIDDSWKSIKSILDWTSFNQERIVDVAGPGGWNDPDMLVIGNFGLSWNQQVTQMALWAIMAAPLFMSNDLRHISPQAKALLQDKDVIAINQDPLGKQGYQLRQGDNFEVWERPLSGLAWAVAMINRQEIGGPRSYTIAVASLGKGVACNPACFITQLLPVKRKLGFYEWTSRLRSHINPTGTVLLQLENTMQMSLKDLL
# Rango release inh = inhibition of RanGTP-driven Rango-importin beta dissociation; 0.071% of 340,000 active; AID 540253; Biochemical FRET Rango-importin beta, RanGTP-induced dissociation; O95149+P62826; Potency, µM (series often up to 46.1 µM), for inactives: at the top dose activity change, negative = inhibition; active means falling FRET ratio curve, often poorly fitted, with flat reads before Ran was added; inconclusive means other falling curves, or compound fluorescence or quenching; inactive means flat or rising ratio curve;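 also: potency is read from the fitted curve at half-maximal effect; % of control where 0% means no effect; nearly all actives have a fitted effect of over 45% in size; -100% = wells without RanGTP and RCC1; the record marks most hits as doubtful in a second field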
#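 Compounds sat 5 min at room temperature with 0.1 uM Rango biosensor plus 0.25 uM importin beta, then FRET pre-read. RanGTP-RCC1 (0.6 uM Ran, 2mM GTP, 0.2 uM RCC1) added for 45 min, and the CFP/YFP post-read measured blocked complex dissociation.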
# An asterisk follows results filed as active; u = inconclusive; x = no result given; & = joins results of further samples; [ ] = dose if it differs, or a comment. An excerpt; the hit share may differ from the screen's.
Structure,Rango complex inh,miR-21 FLuc,GLA inh pH 4.5,Rango release inh
O=c1[nH]cnc2scc(-c3ccccc3)c12,-0.4%,-1%,2,30%
CN(Cc1cnc2nc(N)nc(N)c2n1)c1ccc(C(=O)N[C@@H](CCC(=O)O)C(=O)O)cc1,u,x,12&12,u
CCCCOC(=O)c1ccc(N2C(=O)CC(N3CCN(C/C=C/c4ccccc4)CC3)C2=O)cc1 (centres undefined),6.8%,-5%,-11,0%
CCC1CCCCN1C(=O)c1ccc([N+](=O)[O-])o1 (centres undefined),0.2%,10%,x,-7%
O=C1c2ccccc2NC(c2ccccc2)N1/N=C/c1ccccc1 (centres undefined),0.1%,-15%,8,-13%
COc1cc(OC)c(S(=O)(=O)NCc2ccco2)cc1S(=O)(=O)NCc1ccco1,5.3%,-5%,6,15%
COc1ccc(-c2cc(-c3cccs3)c(C#N)c(SCC(=O)NCc3ccccc3)n2)cc1,-0.5%,-2%,2,-6%
N#Cc1cc2nc(O)c(O)nc2cc1[N+](=O)[O-],u,x,-1&-5,-17%
Cc1cccc(C)c1NC(=O)C1(NC(=O)Cn2cccc([N+](=O)[O-])c2=O)CCCCC1,-3.7%,-7%,-1,-16%
CCOc1ccc(S(=O)(=O)N/N=C(\C)c2ccc(OC)cc2OC)cc1,-2.8%,0%,5,-8%
CCCn1c(SCC(=O)N2CCCCC2)nnc1C(C)C,3.0%,-49%,-5,-5%
CC(C)(C)c1cc(N)n2nc(C(C)(C)C)cc2n1,1.5%,-8%,7,-9%
COc1cccc(CN2CCN(Cc3cccc(Oc4ccccc4)c3)CC2)c1OC,4.8%,0%,x,-17%
Cc1ccc(-n2c(C)cc(/C=N/NC(N)=S)c2C)cc1,0.3%,-11%,-5,-22%
Cc1ccc(OCc2nc(-c3cccs3)no2)c([N+](=O)[O-])c1,0.7%,-31%,-11,10%
Cc1cccc(C)c1NC(=O)c1ccc([N+](=O)[O-])s1,-3.5%,19%,3,0%
CCn1ncc(C(=O)Nc2ccc([N+](=O)[O-])cc2OC)c1C,5.5%,x,x,7%
Cc1ccc(S(=O)(=O)CC(=O)Nc2ccc(S(=O)(=O)Nc3ccccn3)cc2)cc1,-0.6%,-4%,1,15%
N#Cc1c(NC(=O)CN2CCCCC2)sc2c1CCC2,u,-10%,3,-12%
Cc1cc[n+](CC2OCc3ccccc3CO2)cc1,-0.9%,1%,5,-22%
O=C(CSc1nnc(COc2ccccc2)n1Cc1ccco1)Nc1ccc2c(c1)OCCO2,-2.8%,0%,-12,1%
CCOC(=O)C1CCCN(C(=O)Cn2nc(CC)n3c(cc4sccc43)c2=O)C1 (centres undefined),-0.4%,-21%,4,0%
Cn1c(SCC(=O)C(C)(C)C)nnc1-c1ccncc1,0.6%,-4%,2,-1%
COC(=O)c1ccccc1NC(=O)C1CC(=O)N(c2ccc(C)c(C)c2)C1 (centres undefined),0.0%,-6%,-9,6%
O=C(NCc1ccccc1C(F)(F)F)c1cccc2c1C(=O)c1ccc(N3CCCCC3)cc1S2(=O)=O,u,x,x,u

# In the list so far, 2 contain a tert-butyl group:
Structure,Rango complex inh,miR-21 FLuc,GLA inh pH 4.5,Rango release inh
CC(C)(C)c1cc(N)n2nc(C(C)(C)C)cc2n1,1.5%,-8%,7,-9%
Cn1c(SCC(=O)C(C)(C)C)nnc1-c1ccncc1,0.6%,-4%,2,-1%

# Carrying on.
Structure,Rango complex inh,miR-21 FLuc,GLA inh pH 4.5,Rango release inh
CN(C(=O)CSc1nnc(Nc2ccccc2)s1)c1c(N)n(Cc2ccccc2)c(=O)[nH]c1=O,-1.0%,1%,2,-5%
Cc1cc(C)c(S(=O)(=O)N2CCN(C(=O)c3c(C)nn(-c4ccccc4)c3Cl)CC2)c(C)c1,0.7%,x,x,-3%
COc1ccc(C(CC(=O)O)NC(=O)Cc2ccccc2)cc1 (centres undefined),-3.2%,-5%,0,0%
Cc1cccc(NC(=O)CN2C(=O)S/C(=C\C(=O)Nc3ccc(Cl)cc3)C2=O)c1,4.3%,0%,-2,9%
CCOc1ncccc1C(=O)OCC(=O)Nc1ccc(Cl)cn1,-1.4%,x,x,-3%
C/C=C(\C)C(=O)N1CC2(CC(c3cccc(NC(=O)CC(c4ccccc4)c4ccccc4)c3)=NO2)C[C@H]1C(N)=O (some centres undefined),x,25%,-6,x
CCN=C1S/C(=C\c2cc(Br)ccc2OCC(=O)OCC)C(=O)N1CC,-1.8%,0%,8,-10%
O=C(O)/C(=C\C(=O)c1ccccc1)Nc1ccccc1,x,-55%,6,x
O=C(N/C(=C\c1cccnc1)C(=O)N1CCOCC1)c1ccco1,3.2%,1%,-6[21.1 µM],2%
COc1ccccc1NS(=O)(=O)c1cc(C(=O)NC2CCN(Cc3ccccc3)CC2)ccc1C,-1.9%,x,x,-7%
C=CCC1(CC=C)CCCN1C(=O)c1cc(COc2cccc(C(F)(F)F)c2)on1,0.5%,11%,x,-16%
C=C(C)Cn1c(NCCC)nc2c1c(=O)n(C)c(=O)n2C,0.6%,-2%,x,0%
Cc1cc(C)c(-c2cc(NC(=O)COC(=O)c3ccc(C#N)cc3)n(-c3ccccc3)n2)cc1C,u,-3%,-7,-6%
CC(C)(C)C(=O)Cn1ncc(N2CCOCC2)c(Cl)c1=O,3.7%,-14%,x,-16%
O=C(NCc1cccnc1)c1ccccc1NC(=O)c1c(F)cccc1F,-0.5%,0%,x,-16%
CN(C(=O)c1ccccc1OCc1ccc(Cl)cc1)c1ccccc1,-1.0%,-13%,x,-16%
COC(=O)CSc1[nH]c2ccc(F)cc2c1[N+](=O)[O-],u,0%,1,u
COc1ccc(C(=O)NC(C)CCc2ccccc2)cc1[N+](=O)[O-] (centres undefined),-2.1%,-6%,x,17%
CC(C)C(=O)N1CCN(c2ccccc2NC(=O)c2cccc(Cl)c2)CC1,-0.5%,-1%,6,-14%
O=S(=O)(c1ccc(F)cc1)n1ccc(-c2cccc(OCc3ccc(Cl)cc3Cl)c2)n1,-1.1%,-3%,-24,12%
O=C(CN1C(=O)CSc2ccc(C(F)(F)F)cc21)Nc1ccccc1,5.6%,-4%,-3,13%
COc1ccccc1OCC(=O)NCCCN1CCOCC1,-1.2%,-3%,x,0%
CC1Cn2c(nc3sc4c(c3c2=O)CCC4)N1CCO (centres undefined),3.3%,-16%,4,-13%
CCn1c(SCc2ccc(C(=O)OC)o2)nc2sc3c(c2c1=O)CCCC3,-0.1%,-8%,-2,5%
CNc1c(NS(=O)(=O)c2ccc(OC)cc2)c(=O)oc2ccccc12,-1.2%,0%,x,-10%
COc1ccc(Cc2nnc(NC(=O)Nc3ccccc3OC)s2)cc1,1.7%,4%,x,-15%
OC(COCc1ccccc1)CN1CCc2ccccc2C1 (centres undefined),2.5%,-10%,3,6%
Cc1cccc(N(C(=O)CCC(=O)Nc2nccs2)C(C(=O)NC(C)(C)C)c2ccc(O)cc2)c1 (centres undefined),0.9%,7%,-5,-2%
COc1ccc(OC)c(N(CC(=O)NC2CC3CCC2C3)S(=O)(=O)c2ccccc2)c1 (centres undefined),-2.8%,0%,x,4%
O=S(=O)(c1cccs1)N1CCc2ccccc2C1,1.9%,-4%,1,-18%
CCOC(=O)C1CCN(S(=O)(=O)c2ccc3c(c2)CC(=O)N3)CC1,-1.3%,3%,x,-10%
Cc1ccc(C(=O)OCC(=O)c2ccc(CC(=O)N3CCOCC3)s2)c(C)c1,u,x,x,-24%
CC(=O)Nc1ccc2c(c1)-c1ccc(F)cc1C2,u,x,x,2%
CC1CCN(S(=O)(=O)c2cn(CC(=O)Nc3ccc(C#N)cc3)cn2)CC1,-0.5%,7%,x,-8%
CCC(C)(C)n1nnnc1C(C(C)C)N1CCN(C)CC1 (centres undefined),1.7%,-2%,2,-3%
Cc1ccc(S(=O)(=O)c2ccc(Cl)cc2)cc1S(=O)(=O)N1CCN(C)CC1,-0.7%,6%,3,0%
COc1ccc2c(c1)CCCC21NC(=O)N(CC(=O)N2CC(C)OC(C)C2)C1=O (centres undefined),-1.9%,x,x,3%
CCC(CC)C(=O)NCCc1ccc(F)cc1,-1.5%,-5%,6,2%
FC(F)(F)c1ccnc(Oc2ccc(C3=NCCS3)cc2)c1,0.1%,-75%,-8,19%
COc1ccccc1NC(=O)CSC1CC(=O)N(c2ccc3c(c2)OCO3)C1=O (centres undefined),-7.0%,-5%,-8,17%
Cc1ccc(COc2ccc(/C=N/O)cc2)cc1,-4.3%,-47%,1,43%
CN(C)CCn1c2c(c(SCC(=O)Nc3nccs3)nc1=O)CCCC2,0.2%,x,x,-5%
CC(=O)Nc1sc(N/N=C\c2ccco2)nc1-c1cccs1,-0.7%,-17%,-4,0%
O=[N+]([O-])c1ccc(/C=N/NS(=O)(=O)c2ccc(Cl)cc2)o1,1.6%,0%,0,-16%
Cc1ccc(NC(=O)CCC(=O)OCC(=O)c2ccc(Oc3ccc([N+](=O)[O-])cc3)cc2)cc1,8.6%,-11%,-2,19%
C=CCNC(=S)NNc1nc(N2CCCC2)nc(N2CCCC2)n1,-0.4%,-2%,x,6%
O=C(CCn1ccnc1)Nc1ccc2ccccc2c1,0.0%,-9%,3,14%
O=C(NCCCCO)c1ccc2c3c(cccc13)CC2,-1.4%,-2%,-2,-9%
CC(=O)Nc1ccc(S(=O)(=O)N2CCC(C(=O)NCc3cccnc3)CC2)cc1,3.9%,3%,x,-7%
CN1C(=O)N(CC(=O)NCc2ccc(Cl)cc2Cl)C(=O)C12CCCCC2,0.0%,x,x,3%

# (cont.)
Structure,Rango complex inh,miR-21 FLuc,GLA inh pH 4.5,Rango release inh
O=C(Cc1ccc([N+](=O)[O-])cc1)Nc1cccc(C(F)(F)F)c1,-5.2%,18%,-13,8%
Cc1ccccc1N1CCN(C(=S)c2ccc(-c3cccc([N+](=O)[O-])c3)o2)CC1,1.2%,-16%,6,8%
CCOC(=O)Nc1ccc2c(c1)N(CCCN(C)C)c1ccccc1CC2,3.0%,2%,x,-26%
CCOCCCNC(=O)CCNS(=O)(=O)c1ccc(C)cc1,-1.2%,-5%,-5,6%
CC[n+]1ccccc1/C=C1\Sc2ccc(C)cc2N1C,u,29%,x,-25%
C[C@@H]1C=CC(=O)O[C@@H]1c1ccc(Cl)cc1,2.5%,u,x,16%
CSCCC(NS(=O)(=O)c1ccc2c(c1)oc(=O)n2C)C(=O)NCc1cccs1 (centres undefined),0.0%,-2%,3,-1%
O=C(N/N=C/C=C/c1ccc(Br)cc1)C(O)c1ccccc1 (centres undefined),-2.6%,-3%,-3,-2%
CCOC(=O)COc1ccc2c(c1)C(=O)CC(C)(C)O2,7.2%,-1%,12,-16%
COc1ccc(CNC(=O)C(C)n2nc(C)c3c(C)n(-c4ccc(C)cc4)nc3c2=O)cc1 (centres undefined),0.0%,17%,x,-9%
O=C(N/N=C/c1ccccn1)c1cc(-c2ccc(Br)s2)[nH]n1,u,1%,x,u
Cc1nn(-c2ccccc2)c(C)c1C(=O)OCC(=O)NC(=O)NC1CCCCC1,-3.2%,-6%,-9,13%
Cc1sc2ncnc(Nc3ccccc3)c2c1C,1.9%,-42%,0,-8%
CCCC(=O)Nc1nc2nc(-c3ccccc3)cc(-c3ccccc3)n2n1,1.8%,-4%,9,6%
Cc1cc(NC(=O)CSc2nnc(C)n2C)no1,4.5%,-3%,x,10%
Cc1ccc(NC(=O)N2CCN(C(=O)c3ccco3)CC2)cc1Cl,-2.8%,-16%,x,0%
CCOC(=O)N1CCN(CC(=O)Nc2nnc(C(F)(F)F)s2)CC1,-0.1%,2%,x,17%
CC(=O)Nc1ccc(S(=O)(=O)N(CC(=O)O)Cc2ccccc2)cc1,1.5%,-3%,2,2%
